Assay outcomes: PubChem BioAssay, Center for Chemical Genomics, University of Michigan
CDC25B-CDK2 inh = human CDC25B-CDK2/CyclinA binding inhibition | P30305+P24941 | HTRF CDC25B-CDK2/CyclinA binding, anti-His/anti-Flag; active compounds read high | z-score (test concentration not listed) | 94,000 compounds, 0.72% hits | AID 1259370;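 also: score is relative to mean and SD of negative controls; strong numbers were not always called active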
TAR Tat displ = HIV-1 TAR-Tat binding disruption; HIV-1 TAR RNA, Tat peptide displacement FRET; active compounds read high; z-score (no concentration beside the values); 100,000 compounds, 0.6% hits; AID 1259389;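 also: score is relative to mean and SD of negative controls; some compounds called inactive have numbers as strong as hits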
Starred values were filed as active, the others as inactive; · = not tested or not shown.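 The calls were made as follows: active = z-score from 3 up in half or more of its runs; inactive = the rest.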 Hits appear at their usual frequency; about 0.9% have a hit in one of these screens.

Each structure is followed by: CDC25B-CDK2 inh, TAR Tat displ
Cc1cc(C)n(CCc2nc3c4ccccc4nc(=S)n3[nH]2)n1
  -2.3, ·
CCCc1cc(=O)n2nc(N(C)CC(=O)NCC)sc2n1
  -0.68, 1.8
COc1ccc(OCC(O)CNC(=O)c2ccc(C(F)(F)F)nc2C)cc1 (configuration not stated)
  -2.8, ·
Cc1ccnc(NC(c2ccc(N(C)C)cc2)c2ccc3cccnc3c2O)c1 (configuration not stated)
  -1.8, 0.55
COc1ccccc1-c1noc2ncnc(NCCN3CCCC3)c12
  ·, 0.32
Cc1[nH]c2ccccc2c(=O)c1CN1CCCCCC1
  -1, ·
CCOCCCNC(=O)Cn1ncn2c(cc3sc(CC)cc32)c1=O
  0.08, 0.03
CCOc1cc(C2C(C(=O)OC)=C(C)NC3=C2C(=O)CC(c2ccc(Cl)cc2)C3)ccc1O (configuration not stated)
  -1.7, -0.98
CN(C)c1ccc(C(=O)NNC(=O)COc2ccccc2)cc1
  -2.9, ·
CC(C)OC(=O)C(C(=O)C(F)(F)F)c1cc(NS(=O)(=O)c2ccc(Br)cc2)c2ccccc2c1O (configuration not stated)
  19*, ·
CCOC(=O)c1cc(S(=O)(=O)N(C)CC(=O)N2CCCCC2)cn1C
  ·, 0.75
COc1ccc(CNS(=O)(=O)c2cc(CN3C(=O)c4cccnc4C3=O)ccc2OC)cc1
  ·, -0.72
CCOC(=O)c1noc2nc(C)nc(Nc3cc(OC)cc(OC)c3)c12
  ·, 0.02
Cc1nc2sc(C(c3cccs3)N3CCN(c4ccc(F)cc4)CC3)c(O)n2n1 (configuration not stated)
  -0.29, ·
CC(C)(C)c1nnc2sc(COc3ccc(Cl)cc3)nn12
  -1.2, 3.4
Nc1nonc1C(=O)NCCNC(=O)COc1ccccc1
  -1.2, 2
O=C(NCC1CC1)c1cccn2c(-c3ccccc3F)nnc12
  ·, 0.92
Cc1ccc(-n2c(SCc3nc(-c4ccccc4C)no3)nnc2-c2ccncc2)cc1
  1.5, 1.2
C#CC(N)CCC(=O)O (configuration not stated)
  -0.69, ·
COc1ccc(NC(=O)CC2SC(=O)NC2=O)cc1 (configuration not stated)
  -0.99, -0.28
CCOC(=O)C1CCCNC1=O (configuration not stated)
  -1.6, ·
COC(=O)c1ccc(C2Oc3ccccc3C3CC(c4ccccc4O)=NN32)cc1 (configuration not stated)
  -0.93, 0.39
COc1ccc(OCc2nc(C#N)c(NCCc3ccccc3)o2)cc1
  -1.1, -1.2
COc1cc2c(cc1OC)C(C)N(C(=O)Nc1cn(CC(C)C)c(=O)c3ccccc13)CC2 (configuration not stated)
  ·, 0.67
Cc1ccc(NS(=O)(=O)c2cc3[nH]c4c(c3cc2C)C(=O)CCC4)cc1N(C)C
  ·, -0.82
COc1ccc(-c2nnc3c4ccccc4c(C)nn23)cc1S(=O)(=O)N1CCC(C)CC1
  -2.9, 1.6
O=C(CCc1nc2sc3c(c2c(=O)[nH]1)CCCC3)NCCC1=CCCCC1
  ·, 0.46
CC(C)Cc1cc2c(s1)SCC(=O)N2CC(=O)NCCN1CCOCC1
  ·, -0.32
O=C(c1cc(-c2ccccc2)on1)N(Cc1ccco1)Cc1ccccc1F
  -1.5, -2.5
COc1ccccc1Oc1ncnc(N)c1[N+](=O)[O-]
  ·, 2.6
Cc1cc2oc(C(=O)NCC(c3ccco3)N(C)C)c(C)c2cc1Cl (configuration not stated)
  -2.2, 0.86
CC1CCC(NC(=O)CCS(=O)(=O)c2ccc3c(c2)oc(=O)n3C)CC1 (configuration not stated)
  ·, -0.35
COC(=O)CSC1=C(C#N)C(=O)NC(c2ccc(O)c(OC)c2)S1 (configuration not stated)
  -2.2, -0.68
COc1cccc(CNCc2ccc3c(c2)OCO3)c1
  3, -0.66
CNc1nnc(C(F)(F)C(F)(F)C(F)(F)F)s1
  -1.1, ·
c1ccc2c(-c3nnc(CN4CCCCC4)o3)c[nH]c2c1
  -1.7, -0.04
COc1ccc(C(=O)CSc2nnc3ccc4ccccc4n23)cc1
  -1, -1.3
O=C(NC(=S)Nc1ncn[nH]1)c1ccccc1
  -1.1, ·
Cc1cccc(-c2nc3scc(CCNS(=O)(=O)c4ccc5c(c4)OCCO5)n3n2)c1
  ·, 1.9
O=C1CSC(c2cn(-c3ccccc3)nc2-c2cc3ccccc3oc2=O)N1CC1CCCO1 (configuration not stated)
  -1.5, ·
O=C(O)c1ccc(Cn2c(=O)c3cccn3c3cccnc32)o1
  1.8, 1.3
CC1Sc2ccc(S(=O)(=O)N3CCC(C(=O)NCCC4=CCCCC4)CC3)cc2NC1=O (configuration not stated)
  ·, -0.04
CCNC(=O)C(=O)NCC(c1ccco1)S(=O)(=O)c1ccc(Cl)cc1 (configuration not stated)
  ·, 1.7
O=C(Nc1ccc(N2CCOCC2)cc1)C1=Cc2ccccc2OC=C1
  -0.7, -0.12
Cc1nc2cc(S(=O)(=O)N3CCC(C(=O)N4CCc5ccccc54)CC3)ccc2n1C1CCCC1
  -3.8, -0.93
Cc1[nH]c2ccccc2c1C1(O)C(=O)N(CCOc2ccc(Cl)cc2)c2ccccc21 (configuration not stated)
  -1.1, -0.08
CC(C)(C)c1ccc(C(=O)/C=c2\[nH]c(=O)/c(=C\c3cccs3)s2)cc1
  -1.9, ·
CC1=C(C(=O)NCC2CCCO2)C2(CCN(S(=O)(=O)c3cccs3)CC2)OC1=O (configuration not stated)
  ·, 0.37
CC(Sc1nnc(-c2cc3ccccc3[nH]2)o1)C(=O)Nc1ccc2c(c1)OCCO2 (configuration not stated)
  0.45, -0.78
COc1cccc(CC(=O)NNC(=O)c2ccc3nsnc3c2)c1
  -1.4, ·
CC1(C)Cc2c(c(-c3ccco3)nc3sc4c(NC5CCCCC5)ncnc4c23)CO1
  0.12, -0.2
N#Cc1nc(/C=C/c2ccccc2)oc1N1CCN(C(=O)Cc2cccc3ccccc23)CC1
  1.3, 1.8
Cc1sc(-c2noc(C3CCC3)n2)cc1NC(=O)C1CC(=O)N(c2cccc(Cl)c2)C1 (configuration not stated)
  ·, 0.42
CN(C)CCCNS(=O)(=O)c1cc(C(F)(F)F)cc(C(F)(F)F)c1
  -0.12, ·
O=C(NCc1ccc2c(c1)OCCCO2)c1cnc2ccccc2n1
  -1, ·
CC1=C(c2ccc(F)cc2)S(=O)(=O)N=C1N1CCN(c2ccccc2F)CC1
  ·, -0.15
COc1ccc(C2Nc3ccccc3-c3cc(C)nn32)c(OC)c1 (configuration not stated)
  0.55, 0.93
Cc1ccc(-n2nnnc2CNS(=O)(=O)N(C)C)cc1
  ·, 1.6
CC(C)OCCCN1C(=O)c2oc3ccc(F)cc3c(=O)c2C12C(=O)N(C)c1ccccc12 (configuration not stated)
  -2.7, 0.29
CN(C)c1nc(N)c([N+](=O)[O-])c(Nc2ccccc2)n1
  ·, 0.89

Retrieved by structure from the list above:
Each structure is followed by: CDC25B-CDK2 inh, TAR Tat displ
O=C(NC(=S)Nc1ncn[nH]1)c1ccccc1
  -1.1, ·
Cc1sc(-c2noc(C3CCC3)n2)cc1NC(=O)C1CC(=O)N(c2cccc(Cl)c2)C1 (configuration not stated)
  ·, 0.42
Cc1cccc(-c2nc3scc(CCNS(=O)(=O)c4ccc5c(c4)OCCO5)n3n2)c1
  ·, 1.9

(further entries)
Each structure is followed by: CDC25B-CDK2 inh, TAR Tat displ
CN1CCN(c2ncnc3c2c(-c2ccccc2)cn3-c2ccc(F)cc2)CC1
  ·, 2.5
CCn1c2ccccc2c2nnc(N3CCN(c4ccc(OC)cc4)CC3)nc21
  -1.6, 1.3
COc1ccc(-c2noc(NCCC(C)C)n2)cc1OC
  ·, 1.3
CCCN1CCN(c2nc(NCc3cc(OC)ccc3OC)c3cnn(C)c3n2)CC1
  ·, 1.2
COc1ccc(OC)c(NC(=O)N2c3ccccc3NC3=C(C(=O)CCC3)C2c2ccco2)c1 (configuration not stated)
  ·, 0.59
Cc1ccccc1Nc1cccc2nonc12
  -3.1, -6.5
CCCS(=O)(=O)N1CCCc2ccc(NS(=O)(=O)c3ccc(OC)cc3OC)cc21
  ·, 6*
O=C(Nc1nc2ccccc2[nH]1)C1(c2cccs2)CCOCC1
  ·, -0.45
Cc1cc(C)cc(NC(=O)CSc2ccc(-c3ccncc3)nn2)c1
  ·, 2
COc1ccccc1N1CCN(c2nc(C)c3c(n2)CC(C)(C)CC3=O)CC1
  0.96, -0.32
CCOC(=O)/C(C#N)=C(\Nc1ccc(C(=O)OCC)cc1)SC
  -1.5, ·
O=C(c1cc2ccccc2oc1=O)N1CCN(c2ccc(Cl)cc2)CC1
  -0.59, ·
CCC(C)Nc1c(-c2ccc(C)c(C)c2)c(=O)c1=O (configuration not stated)
  ·, 2
O=C(C1CCCN(c2nnc(N3CCCC3=O)s2)C1)N1CCCCC1 (configuration not stated)
  ·, 0.45
COc1ccc(OC)c(-c2cc(C(=O)O)c3c(-c4ccc(Cl)cc4)[nH]nc3n2)c1
  ·, 2
O=S(=O)(Nc1ccc(-c2nnc(-c3ccccc3)o2)cc1)c1ccccc1Cl
  ·, 1.7
Fc1ccc(-c2noc3ncnc(NCCc4ccccc4)c23)cc1
  ·, 0.35
Cc1cccn2cc(CNS(=O)(=O)c3cccc(F)c3)nc12
  -0.16, 1.6
CSc1nc2c(c(Nc3ccccc3F)n1)CCC2
  0.22, 2.2
O=C(COc1ccccc1)N(Cc1ccco1)C1CCS(=O)(=O)C1 (configuration not stated)
  -0.12, 1.5
CCCSc1nc(=O)c2c(n1C)NC(=O)CC2c1ccc(C(=O)OC)cc1 (configuration not stated)
  -1.6, 1.5
O=C1Cc2cc(S(=O)(=O)N3CCN(Cc4ccccc4)CC3)cc3c2N1CCC3
  ·, -0.15
CC(=O)CSc1nnc2ccccn12
  -0.75, ·
Cc1nc2c3ccccc3nc(SCc3cccc(F)c3)n2n1
  ·, 2
O=S(=O)(c1ccc(Cl)cc1)c1cnc2cc3c(cc2c1N1CCOCC1)OCCO3
  0.32, 0.79
CSc1nc(NS(=O)(=O)c2cc(Cl)sc2Cl)nn1C
  -1.8, ·
CCNc1nc(OC)cc(OC)n1
  1.1, 0.66
N#Cc1c(-c2ccccc2)nc(SCc2c(F)cccc2Cl)[nH]c1=O
  2.3, 0.81
COc1ccc(OC)c(NC(=O)c2sc3nc4c(cc3c2N)CCCC4)c1
  -2.9, ·
CSc1nnc(-c2csc(C)n2)n1-c1cccc(F)c1
  -1.5, ·

Some of the entries so far, tab-delimited:
mol	CDC25B-CDK2 inh	TAR Tat displ
CC(=O)CSc1nnc2ccccn12	-0.75	·
COc1ccc(OC)c(-c2cc(C(=O)O)c3c(-c4ccc(Cl)cc4)[nH]nc3n2)c1	·	2
CCCS(=O)(=O)N1CCCc2ccc(NS(=O)(=O)c3ccc(OC)cc3OC)cc21	·	6*
COc1ccc(OC)c(NC(=O)c2sc3nc4c(cc3c2N)CCCC4)c1	-2.9	·

Remaining list, next part:
Each structure is followed by: CDC25B-CDK2 inh, TAR Tat displ
Fc1cc(F)cc(CN2CCc3nc(Nc4ccccc4F)ncc3C2)c1
  ·, 2.1
COC(=O)c1c(N)sc2c1CCCCC2
  0.69, -0.38
COc1ccc(NC(=O)c2c(NS(=O)(=O)c3ccc(C)cc3)csc2C)cc1
  -2.2, ·
CCOc1cccc(C2c3c(oc4ccccc4c3=O)C(=O)N2c2nnc(C(C)C)s2)c1 (configuration not stated)
  -0.49, -1.7
Cc1nc(-c2ccc(S(=O)(=O)N3CCN(c4ncccn4)CC3)cc2)co1
  ·, 0.82
CCOc1ccc(/C=C/c2nc(C#N)c(NCc3ccc(C)cc3)o2)cc1
  -1.6, 1.4
O=C(Cn1ncc2c1-c1ccccc1OC2)N1CCN(c2ccccn2)CC1
  -1.1, 0.57
CCCS(=O)(=O)N1CCN(C(=O)c2cc(-c3ccco3)[nH]n2)CC1
  ·, -6.4
COc1ccc(-c2nc(C(N)=O)c3[nH]c(=O)n(-c4ccc(F)cc4)c3n2)cc1Br
  ·, 1.8
Cc1ccc(Nc2c(-c3ccc(Cl)cc3)nc3cnccn23)cc1
  9.2, ·
CN1C(=O)C(C)(C)c2cc(S(=O)(=O)N3CCCC(C(=O)NCc4ccco4)C3)ccc21 (configuration not stated)
  1.8, -0.36
CSc1cccc(NC(=O)CSc2nc3ccncc3[nH]2)c1
  1.5, -1.6
Cc1ccc(/C=C/c2nn3c(-c4cccnc4)nnc3s2)cc1
  -1.7, 1.7
Nc1c(C(=O)Nc2cc(F)ccc2F)sc2nc(-c3cccs3)ccc12
  0.63, -0.18
Cc1ccc(C)c(S(=O)(=O)c2nnn3c2nc(NC(C)C)c2ccccc23)c1
  -3.5, 0.82
CCCCCCN(CCCCCC)C(=O)Cc1c(-c2ccc(F)cc2)[nH]c2ccccc12
  -1.2, ·
O=C1C2ON(c3ccccc3)C(c3cccnc3)C2C(=O)N1c1ccc(Cl)cc1 (configuration not stated)
  -1.5, -2
CC(CC(=O)NCc1ccco1)S(=O)(=O)c1ccc2c(c1)CCN2C(=O)C1CC1 (configuration not stated)
  ·, -0.71
CC1Cc2nc(SCC(=O)Nc3ccc4c(c3)OCO4)n(C)c(=O)c2S1 (configuration not stated)
  -0.5, 16
CC1CCc2nn(CC(=O)Nc3ccc(F)cc3F)c(=O)cc2C1 (configuration not stated)
  ·, 2.2
Cc1nnc(NC(=O)c2nc(S(C)(=O)=O)ncc2Cl)s1
  -0.72, 1.7
COc1ccc(-c2n[nH]c3c2C(c2ccc(C(C)C)cc2)NC3=O)cc1 (configuration not stated)
  ·, 1.3
Cc1cc(C)c2c(c1)OCN(Cc1ccc(Cl)cc1)C2
  0.13, ·
CC(NS(=O)(=O)c1ccc(Br)cc1)C(c1cccs1)N1CCN(C)CC1 (configuration not stated)
  -1.6, ·
Cc1ccc(N2CC(O)=C(c3nc4ccccc4s3)C2=N)cc1O
  -2.1, 1.9
CCN1CCN(c2oc(-c3ccc(OC)cc3)nc2C#N)CC1
  0.57, 1
